Arbovirus inh: arbovirus infection inhibition | inhibition, % at 10 µM | 200,000 tested, 0.37% active | arbovirus infection cell-based antiviral screen;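 active = inhibition from about 30%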;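 note: bluetongue infection of BSR cells; cell survival read as ATP light after 72 h; 0% = infected wells without compound and 100% = uninfected wells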
Mtb betalactam: beta-lactam sensitization of Mtb H37Rv; M. tuberculosis H37Rv growth with meropenem, percent inhibition; hits of this screen are not shown here; inhibition, % at 25 µM; 330,000 tested, 0.27% active; AID 434955;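 active = about 74% or more and at least 40 points above the plate without the antibiotic, then above 30% in a dose series; inconclusive = first-round hits that could not be retested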;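 note: growth measured after seven days incubation then overnight dye step; 0% = bacteria only wells and 100% = bacteria with antibiotic; twin plates without the antibiotic show which effects depend on it; some results filed as inactive read as strong as hits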
YopH PTP inh: inhibitors of Yersinia enterocolitica YopH tyrosine phosphatase; fluorescence Ex485/Em525; inhibition, %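 (about 10 µM by stock and volumes)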; 140,000 tested, 0.16% active;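 active = inhibition of 50% or more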;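 note: controls were vehicle for no effect and minimum signal wells for full effect; inactives centre near -20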
RecA intein inh: inhibitors of M. tuberculosis RecA intein splicing | P9WHJ3 | cell-free RecA intein splicing, fluorescence | 290,000 tested, 0.75% active | inhibition, %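 (about 9 µM by stock and volumes)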 | AID 2221; in the data active = inhibition above about 30%; inconclusive = no clear call, values can overlap the other calls;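 note: 0% = vehicle wells and 100% = reference inhibitor control wells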
Target sequence (P9WHJ3 whole entry, looked up): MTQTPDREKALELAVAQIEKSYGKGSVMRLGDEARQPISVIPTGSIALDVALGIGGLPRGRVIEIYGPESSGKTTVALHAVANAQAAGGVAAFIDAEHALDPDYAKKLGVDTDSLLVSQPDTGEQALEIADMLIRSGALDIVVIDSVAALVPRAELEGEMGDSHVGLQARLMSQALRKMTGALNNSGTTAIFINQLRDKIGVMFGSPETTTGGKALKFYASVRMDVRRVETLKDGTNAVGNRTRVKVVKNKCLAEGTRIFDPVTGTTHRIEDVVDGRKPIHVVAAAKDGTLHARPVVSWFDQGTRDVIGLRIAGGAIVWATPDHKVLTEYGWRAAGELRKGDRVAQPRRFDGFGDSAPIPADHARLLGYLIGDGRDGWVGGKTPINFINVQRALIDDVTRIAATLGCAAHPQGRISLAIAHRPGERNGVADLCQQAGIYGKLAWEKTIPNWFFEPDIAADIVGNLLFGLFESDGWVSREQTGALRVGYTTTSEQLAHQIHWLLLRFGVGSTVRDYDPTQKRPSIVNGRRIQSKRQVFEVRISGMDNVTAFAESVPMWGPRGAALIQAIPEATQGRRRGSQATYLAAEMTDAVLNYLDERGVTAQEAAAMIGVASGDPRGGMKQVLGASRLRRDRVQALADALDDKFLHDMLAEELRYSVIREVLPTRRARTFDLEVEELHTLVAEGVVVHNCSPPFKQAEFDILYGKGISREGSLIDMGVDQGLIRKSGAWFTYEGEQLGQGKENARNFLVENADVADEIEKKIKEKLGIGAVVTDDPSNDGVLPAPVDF
Mtb H37Rv: M. tuberculosis H37Rv growth inhibitors, H37Rv strain (AID 1626) | M. tuberculosis H37Rv growth inhibition; higher % means a stronger effect | inhibition, % at 10 µM; hits with a dose series show IC50 in µM | 220,000 tested, 0.95% active;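 active = confirmed in a dose series; inconclusive = inhibition above 80% but not taken into the dose series; inactive = below 80% or under 30% at every dose of the series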;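 note: bacteria incubated seven days before Alamar blue readout; 0% = bacteria only wells and 100% = bacteria with antibiotic wells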
Arbovirus inh repeat: second read-out of Arbovirus inh, no call of its own (marks repeat the call); inhibition, %; measured here: 10K subset replicate screen; many hits read low in the repeat;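 first of two repeat runs on a subset; 0% = infected and 100% = uninfected wells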
* = called active by the depositor; ? = inconclusive; . = no result given. These rows are one share of the data, so the mix of outcomes need not match the whole.

SMILES | Arbovirus inh | Mtb betalactam | YopH PTP inh | RecA intein inh | Mtb H37Rv | others
NS(=O)(=O)c1cccc(NC(=O)CCCC2CCCCC2)c1 | . | 3 | . | 1.5 | .
CCN(CC)C(=O)CSc1nnc(CCNC(=O)OC(C)(C)C)o1 | 8 | 3 | -15 | . | -2%
COc1cccc(NC(=O)CS(=O)(=O)Cc2nc(-c3ccc(C)cc3)oc2C)c1 | . | 0 | . | 0.4 | .
O=S(=O)(Nc1nccs1)c1ccc(NS(=O)(=O)c2cccs2)cc1 | -1 | 6 | -39 | -0.3 | 2%
Cc1nn(CC(=O)NCCN2CCOCC2)c(=O)c2ccccc12 | 2 | -3 | -33 | . | 1%
O=C(CN(Cc1ccccc1)C(=O)CCC(=O)Nc1nccs1)NCC1CCCO1 (stereo not given) | . | 3 | . | -0.9 | .
O=C(CSc1nnc(-c2ccccn2)n1Cc1ccccc1)NC1CCCC1 | 5 | -6 | -42 | -0.1 | .
COCC(C)NS(=O)(=O)c1ccc(NC(=O)c2ccccn2)cc1 (stereo not given) | . | -1 | . | 3.3 | 1%
O=C(CN1C(=O)c2ccccc2S1(=O)=O)NCCc1ccccc1 | . | 7 | . | -1.8 | .
OCC(O)CSc1nc(-c2ccccc2)nc2c1CCC2 (stereo not given) | -3 | 6 | -19 | 0.7 | 3%
CC/C(=N\NC(=O)Nc1ccccc1)c1ccccc1 | -9 | 8 | -8 | 1.8 | 3%
COC(=O)c1sc(NC(=O)CCCn2nc([N+](=O)[O-])cc2C)c(C(=O)OC)c1C | 2 | -1 | -17 | -2.7 | .
Cc1nn(C)cc1C(=O)Nc1ccc2c(c1)OCCO2 | . | 1 | . | -4.2 | .
S=C(NCc1ccco1)Nc1ccc(Oc2ccc(Cl)cc2)cc1 | . | 0 | . | 2.9 | 23%
C/C(=N\NC(=S)NC(C)C)c1ccc2c(c1)OCCO2 | -10 | 89 | -9 | -5.1 | 10%
CC1CCCN(CCCNC(=O)CN2C(=O)COc3ccccc32)C1 (stereo not given) | . | -8 | . | 2.6 | .
CCOc1ccc(-n2c(C)nc3cc(C(=O)NCCN4CCOCC4)ccc32)cc1 | 2 | -7 | -5 | -0.2 | -7%
COc1ccc(NS(=O)(=O)c2ccc(N/N=C/c3ccc(N4CCOCC4)cc3)c([N+](=O)[O-])c2)cc1 | -14 | 35 | -23 | -1.4 | 12%
CCN(CC)c1ccc(/C=N/NC(=O)Nc2nonc2N)cc1 | 8 | 0 | -37 | -1.1 | 2%
COc1ccc(C2C(C(=O)N3CCN(C)CC3)c3ccccc3C(=O)N2C2CCCCC2)cc1 (stereo not given) | -11 | 4 | -40 | -0.6 | -4%
COc1cc(C(=O)OCCCN2CCCN(CCCOC(=O)c3cc(OC)c(OC)c(OC)c3)CC2)cc(OC)c1OC | . | 3 | . | 0.0 | -14%
COc1ccc(OC)c(NC(=S)N2CCCC2)c1 | . | 4 | . | -0.2 | .
CCOC(=O)N1CCC(NC(=O)c2cnn3c2NC(c2ccco2)CC3C(F)(F)F)CC1 (stereo not given) | 17 | -5 | -22 | -3.1 | 3%
COCCN(CC1CCCN(C2Cc3ccccc3C2)C1)C(=O)CCC(C)=O (stereo not given) | . | 0 | . | 5.3 | .
O=[N+]([O-])c1cccc(C(=Nc2ccccc2Cl)NO)c1 | -3 | -2 | -25 | 7.8 | 0%
CC(OC(=O)CN1C(=O)c2ccccc2C1=O)C(=O)NC1CCCC1 (stereo not given) | . | -1 | . | -5.9 | .
Cn1nc(C(=O)Nc2ccc(S(=O)(=O)N3CCCCC3)cc2)c2ccccc2c1=O | 10 | -4 | . | 2.5 | 16%
COC(=O)c1c(NC(=O)CN(c2ccc(C)c(C)c2)S(C)(=O)=O)sc2c1CCCC2 | -21 | 0 | -18 | 3.3 | 11%
CCOC(=O)Cn1nc(/C=C/c2ccc(C)cc2)ccc1=O | 2 | 3 | -17 | 2.6 | 7%
CCOc1cc(C=O)ccc1OCCCN1C(=O)NC(C)(C)C1=O | 6 | 0 | -16 | 1.9 | -4%
CC1(C)CC(=O)C(N=Nc2cc(S(=O)(=O)N3CCOCC3)ccc2Cl)=C(O)C1 | . | -6 | . | -2.4 | 1%
COc1cc(CNC(C)C23CC4CC(CC(C4)C2)C3)ccc1OCC(=O)NC(C)(C)C (stereo not given) | . | -2 | . | -0.9 | .
COc1ccc(C(=O)NCCS(=O)(=O)N2CCc3ccccc3C2)cc1 | . | -6 | . | 4.9 | .
O=C(C1CCN(S(=O)(=O)c2cccnc2)CC1)N1CCN(c2ccccc2Cl)CC1 | 16 | -2 | -9 | 1.5 | 2%
N#Cc1c2n(c3c(N)ncnc13)CCCCC2 | . | 0 | . | -2.9 | -4%
Nc1nnc(SCc2cccc(C(F)(F)F)c2)s1 | 6 | 3 | -24 | 0.9 | -6%
COc1ccc(-n2nc(C(=O)N(C)C)nc2-c2ccccc2)cc1 | . | -3 | . | -0.4 | .
CCCNC(=S)Nc1ccc(CC(=O)OC)cc1 | 2 | -1 | -23 | -1.1 | -4%
CCN(CC)c1ccc(N2C(=O)/C(=C/c3ccccn3)SC2=S)cc1 | . | -6 | . | 0.5 | 4%
CCC(=NCCN1CCNCC1)C1=C(O)CC(C)(C)CC1=O | 5 | -1 | -26 | 0.8 | -3%
c1ccc(C(Cc2nc(-c3cccnc3)no2)c2ccccc2)cc1 | 0 | 1 | -35 | 4.6 | -5% | Arbovirus inh repeat=2
Cc1cc(C)n(-c2ccc(C(C)C)cc2)c(=O)c1C#N | 6 | 5 | . | . | -8%
COc1ccc(/C(N)=N/OC(=O)c2ccc3c(c2)OCO3)cc1 | -4 | 1 | -29 | 3.7 | 3%
CCOC(=O)c1ccc2c(c1)C1C=CCC1C(C(=O)O)N2 (stereo not given) | 0 | 9 | 21 | . | -11%
CCOc1ccc(N2CC(C(=O)Nc3ccccc3C(=O)NC3CC3)CC2=O)cc1 (stereo not given) | . | -6 | . | 0.6 | .
O=c1[nH]c(CN2CCN(Cc3ccccc3)CC2)nc2scc(-c3ccccc3)c12 | . | 86 | . | 6.3 | 30%
Cc1ccc(NC(=S)NCC(C)C)cc1 | 6 | -7 | -12 | 0.8 | -1%
O=C(Nc1cccnc1)C1CC(=O)N(c2ccc(F)cc2)C1 (stereo not given) | . | -3 | . | 1.0 | .
COc1ccc(-c2nnc(SCCC(=O)O)n2-c2ccccc2)cc1OC | 13 | 3 | -24 | 1.3 | -13%
O=C(Nc1cc(Cl)ccc1N1CCOCC1)c1cccnc1Cl | . | -1 | . | -0.8 | 1%

Later entries
SMILES | Arbovirus inh | Mtb betalactam | YopH PTP inh | RecA intein inh | Mtb H37Rv | others
Cn1c(SCCOc2ccccc2Cl)nnc1-c1cccs1 | -8 | -12 | 32 | 5.3 | -12%
CCOC(=O)N1CCN(CCC(=O)Nc2ccccc2OC)CC1 | 2 | -6 | -10 | -3.9 | -5%
Cc1ccc(C(=O)NCc2ccco2)cc1 | . | 3 | . | -11 | .
O=C(N/N=C/c1c(O)n(CCc2ccccc2)c(=O)[nH]c1=O)c1ccncc1 | 32* | 100 | -9 | 2.3 | ?
CCCCn1c(=N)n(CC(=O)c2ccc([N+](=O)[O-])cc2)c2ccccc21 | -2 | -6 | . | -3.1 | 17%
O=C(COc1ccccc1Cl)NCCc1ccc2c(c1)OCCO2 | 5 | -2 | -27 | 0.8 | 18%
O=S(=O)(Cc1ccccc1)N1CCN(Cc2ccccc2)CC1 | 2 | -11 | 5 | -7.4 | -2%
CCCCC(Sc1nc(N)c(NC(=O)c2ccc(OCC)cc2)c(=O)[nH]1)C(=O)O (stereo not given) | 9 | -7 | . | -2.6 | -1%
O=C(CN1C(=O)C2C3C=CC(C3)C2C1=O)N1CC(=O)N(CCc2ccccc2)C(=O)C1 (stereo not given) | 4 | -8 | -42 | 0.1 | 1%
O=C(O)C1C2C=CC(C2)C1C(=O)NCCc1ccncc1 (stereo not given) | 3 | 5 | 32 | -1.7 | -9%
COc1ccc(-c2nc3ccccc3c(=O)n2CCCN2CCOCC2)cc1 | 7 | -5 | -8 | 0.9 | 1%
Cc1ccc(-c2nnc(N3CCOCC3)c3ccccc23)cc1S(=O)(=O)NCC1CCCO1 (stereo not given) | -3 | -12 | -24 | -1.7 | -21%
COc1cc(NC(=O)c2ccco2)c(OC)cc1NC(=O)CCC(=O)Nc1cc(C)ccc1C | -6 | -3 | 0 | . | -11%
Cc1cc(C)c2ccc(Cl)cc2n1 | . | -3 | . | -0.9 | 0%
O=C(O)CCN1C(=O)C(=C2CCCCCC2)SC1=S | 10 | -2 | -35 | -3.0 | -3%
CCc1nnc(NC(=O)CSc2nnc(Cc3ccccc3)n2Cc2ccccc2)s1 | -1 | -2 | -14 | -2.2 | -13%
FC(F)(F)c1ccc(-c2nnc(-c3cccnc3)o2)cc1 | . | 2 | . | -0.2 | .
O=C(NCc1cccnc1)c1cccn1-c1ncc(C(F)(F)F)cc1Cl | 0 | -3 | . | -1.2 | -4%
CC(=O)c1cccc(NC(=O)CCc2nnc3ccc(NCc4ccco4)nn23)c1 | . | -2 | . | -1.6 | .
COc1ccc(-n2c(SCC(=O)Nc3ccc4c(c3)OCO4)nc3ccccc3c2=O)cc1 | -13 | -6 | -1 | 1.9 | 4%
O=C(NCCC(=O)N1CCC2(CC1)NCCc1[nH]cnc12)c1ccc(Br)cc1 | . | 1 | . | -1.2 | .
Cc1ccc(Cn2ccc(NC(=O)c3cc(-c4cccc(Cl)c4)on3)n2)cc1 | 4 | -6 | -53 | 0.2 | -1%
CCCCCCOc1ccc(N2C(=O)CC(N3CCC(C(=O)OCC)CC3)C2=O)cc1 (stereo not given) | 5 | 2 | -39 | 0.8 | -8%
O=c1c2cnn(-c3ccccc3)c2ncn1Cc1ccccc1 | -2 | 4 | -4 | -2.5 | 15%
CCc1ccc(S(=O)(=O)N/N=C\c2ccc3c(c2)OCO3)cc1 | . | -4 | . | 3.0 | .
N#Cc1nc(COc2ccc(F)cc2)oc1N1CCN(Cc2ccccc2)CC1 | 2 | 7 | -45 | 10 | .
CCOC(=O)CNC(=O)CSc1nnc(Cn2c(=O)sc3ccccc32)n1C | 1 | 0 | -9 | 0.3 | 4% | Arbovirus inh repeat=1
O=C(NCc1ccc(Cl)cc1)c1cccc(NC2=NC3CS(=O)(=O)CC3S2)c1 (stereo not given) | . | -1 | . | 13 | .
O=c1c2ccccc2nc(-c2ccc([N+](=O)[O-])cc2)n1-c1ccccc1 | -9 | 5 | -24 | 3.3 | -1%
Cn1nccc1NC(=O)Nc1cccc(Br)c1 | . | 1 | . | -1.5 | .
O=C(NCCN1CCOCC1)c1cccc(NS(=O)(=O)c2ccc(Br)cc2)c1 | . | -4 | . | -1.3 | .
Cc1cccc(OCC(=O)NCc2ccccc2)c1 | . | 3 | . | 0.8 | .
Cc1cc([N+](=O)[O-])ccc1NC(=O)CCC(=O)N1CCCC1 | . | 1 | . | 1.3 | .
COc1ccc(OC)c(NC(=O)CSc2nnc(CNc3ccc(F)cc3)o2)c1 | 8 | -8 | -23 | -1.2 | -10%
CS(=O)(=O)Nc1ccccc1C(=O)Nc1ccccc1Cl | 4 | 0 | -13 | 1.5 | 1%
CS(=O)(=O)Nc1cccc(S(=O)(=O)N2CCN(C(=O)c3ccccc3)CC2)c1 | . | -11 | . | 0.7 | 11%
CC(=O)Nc1ccc(S(=O)(=O)NCc2nnnn2-c2ccc(Cl)cc2)cc1 | . | 4 | . | -1.1 | .
CCCC(C)C(=O)Nc1ccc(Cl)cn1 (stereo not given) | -5 | -14 | 31 | -0.4 | -3%

Among those listed so far, these have a nitro group on carbon:
SMILES | Arbovirus inh | Mtb betalactam | YopH PTP inh | RecA intein inh | Mtb H37Rv | others
COC(=O)c1sc(NC(=O)CCCn2nc([N+](=O)[O-])cc2C)c(C(=O)OC)c1C | 2 | -1 | -17 | -2.7 | .
COc1ccc(NS(=O)(=O)c2ccc(N/N=C/c3ccc(N4CCOCC4)cc3)c([N+](=O)[O-])c2)cc1 | -14 | 35 | -23 | -1.4 | 12%
O=[N+]([O-])c1cccc(C(=Nc2ccccc2Cl)NO)c1 | -3 | -2 | -25 | 7.8 | 0%
CCCCn1c(=N)n(CC(=O)c2ccc([N+](=O)[O-])cc2)c2ccccc21 | -2 | -6 | . | -3.1 | 17%
O=c1c2ccccc2nc(-c2ccc([N+](=O)[O-])cc2)n1-c1ccccc1 | -9 | 5 | -24 | 3.3 | -1%
Cc1cc([N+](=O)[O-])ccc1NC(=O)CCC(=O)N1CCCC1 | . | 1 | . | 1.3 | .

From PubChem BioAssay
